Rango release inh: qHTS Assay for Inhibitors of RanGTP induced Rango (Ran-regulated importin-beta cargo) - Importin beta complex dissociation. Potency, µM (highest dose often 46.1 µM), inactives show at the highest dose activity change, negative = inhibition. 0.071% of 340,000 active. Biochemical FRET Rango-importin beta, RanGTP-induced dissociation; active means falling FRET ratio curve, often poorly fitted, with flat reads before Ran was added; inconclusive means other falling curves, or compound fluorescence or quenching; inactive means flat or rising ratio curve;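 further: potency means the concentration at half of the fitted maximal effect; % of control where 0% means no effect; nearly all actives have a fitted effect of over 45% in size; -100% = wells without RanGTP and RCC1; the record marks most hits as doubtful in a second field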
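Rango (0.1 uM)–importin beta (0.25 uM) complex; RanGTP-RCC1 trigger; 45 min RT; CFP/YFP FRET read.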
GLA inh pH 4.5: qHTS Assay for Inhibitors of Human alpha-Galactosidase at pH 4.5; activity change, negative = inhibition, % at 105 µM; AID 1467, 2008; Alpha-galactosidase A (Homo sapiens), P06280; 230,000 tested, under 10 active; purified enzyme, 4-MU-alpha-Gal fluorescence, pH 4.5; inconclusive = small, poorly fitted or top-dose-only inhibition, or a rising curve; inactive = flat fitted curve, though single readings scatter; no compound was filed as active;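 further: 0% = full activity with enzyme and -100% = basal without enzyme; dose as in the result columns while the protocol names 77 µM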
Target sequence (P06280 whole entry, looked up): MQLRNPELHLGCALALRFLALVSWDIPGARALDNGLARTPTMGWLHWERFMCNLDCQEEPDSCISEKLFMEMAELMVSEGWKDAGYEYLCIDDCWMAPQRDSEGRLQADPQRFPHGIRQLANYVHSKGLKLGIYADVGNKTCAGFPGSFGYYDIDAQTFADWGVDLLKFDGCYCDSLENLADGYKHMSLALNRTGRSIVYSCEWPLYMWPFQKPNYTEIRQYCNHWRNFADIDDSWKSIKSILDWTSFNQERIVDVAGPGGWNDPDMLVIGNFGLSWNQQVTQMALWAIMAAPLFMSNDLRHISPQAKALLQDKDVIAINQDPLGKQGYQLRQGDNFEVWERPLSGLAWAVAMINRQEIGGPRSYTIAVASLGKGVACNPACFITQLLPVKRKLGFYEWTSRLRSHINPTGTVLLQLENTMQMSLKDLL
Rango-impB inh: qHTS Assay for Inhibitors of Rango (Ran-regulated importin-beta cargo) - Importin beta complex formation; Potency, µM (series often up to 92.2 µM), for the others: top-dose inhibition of complex formation; Rango CFP/YFP FRET sensor + importin beta, 45 min; 0.031% of 340,000 active; Importin subunit beta-1 (Homo sapiens), Q14974; AID 540263, 2011; active = rising FRET ratio curve, often small or poorly fitted; inconclusive = mostly compound fluorescence or quenching in the first reads; inactive = flat curves in all reads;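 further: potency means the concentration at half of the fitted maximal effect; 0% = DMSO wells and 100% = buffer wells lacking importin beta; nearly all actives have a fitted effect of over 15% in size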
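Inhibition scored from the CFP 486 nm/YFP 530 nm FRET ratio 45 min after adding 0.125 microM importin beta to 50 nM Rango biosensor preincubated 5 min with compound (room temperature, PBS with DTT, Tween-20, BSA). No-importin wells as positive control.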
miR-21 FLuc: qHTS Assay for Modulators of miRNAs and/orActivators of miR-21; HeLa miR-21 FLuc reporter, luciferase, 48 h; Potency, µM (doses to about 38.3 µM), for the others: top-dose reporter change, positive = more light; 340,000 tested, under 10 active; active = well fitted rising curve with a large enough effect; inconclusive = small, poorly fitted or top-dose-only effect; inactive = no such curve, though single readings can be large or run the other way;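 further: % of control where 0% means no effect; miR-21 action dims this reporter so a rising signal means less miR-21 action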
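Using DMEM plus 10% FBS, HeLa miR-21-FLuc cells are incubated with test compounds (final up to about 40uM) for 48 hours; firefly luciferase signal is then imaged following reagent-mediated lysis.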
* = called active by the depositor; ? = inconclusive; · = not tested or not shown. A portion of the library (hit frequency here may not be typical).

SMILES	Rango release inh	GLA inh pH 4.5	Rango-impB inh	miR-21 FLuc
O=C(CCNC(=O)OCc1ccccc1)NC1CCCCCC1	0%	-1	-3.5%	-9%
O=[N+]([O-])c1cccc(/C=N/Nc2nc(C(Cl)(Cl)Cl)nc3ccccc23)c1	-17%	1	0.4%	-5%
CCN(c1ccccc1)S(=O)(=O)c1cccc(C(=O)NCCOc2ccccc2OC)c1	-8%	·	-2.8%	·
CC1CCc2[nH]c3ccc(C(=O)N(C)CC(=O)Nc4ccccc4Cl)cc3c2C1 (configuration not stated)	-29%	·	?	·
O=C1NC(c2cccs2)Nc2ccccc21 (configuration not stated)	-11%	-6	0.6%	-14%
Cc1ccc(C(=O)CCC2CCCC2=O)cc1 (configuration not stated)	-6%	-1	-2.7%	-57%
COc1ccc(C(=O)Nc2cccc(S(C)(=O)=O)c2)cc1	18%	4	-0.6%	-12%
Cc1ccccc1OCc1nc(-c2cccnc2)no1	-8%	11	8.4%	0%
COc1cccc(NC(=O)C2CCN(c3ncccn3)CC2)c1	-7%	1	2.7%	-17%
CC(C)(C)OC(=O)N1CCC(C(=O)NCC2CCCO2)CC1 (configuration not stated)	-14%	·	4.0%	-3%
Cc1cc(C)cc(OCCNS(=O)(=O)c2cccs2)c1	-2%	-7	0.7%	-7%
CCOC(=O)c1ccc(Oc2nc(NC(C)(C)C)nc(N(C)C)n2)cc1	4%	-4	-3.3%	20%
O=C(CNC(=O)C1COc2ccccc2O1)N/N=C/c1ccc([N+](=O)[O-])cc1 (configuration not stated)	-14%	·	0.7%	3%
COc1cc(CN2CCNC(=O)C2CC(=O)N(C)Cc2ncc[nH]2)cc(OC)c1 (configuration not stated)	-1%	6	?	18%
COc1ccc(-n2nc([N+](=O)[O-])c(=NCc3ccco3)n2O)cc1	-8%	-6	-0.4%	-59%
O=C(NCc1ccco1)C1CCCCC1	16%	7	1.5%	-3%
O=C(Nc1ccccc1C(F)(F)F)c1ccc(CN2CCC(Cc3ccccc3)CC2)cc1	6%	-8	2.5%	8%
O=C(CCNc1ccccc1)c1cccc([N+](=O)[O-])c1	-1%	-10	2.3%	-4%
C/C(=N\N)c1c(-c2ccccc2)c2cc(C)ccc2[nH]c1=O	-5%	0	2.4%	0%
CC(=O)c1c(-c2ccccc2)c2cc([N+](=O)[O-])ccc2[nH]c1=O	-1%	·	1.7%	22%

Reprinted from the part before: 4 entries; new compounds follow.
SMILES	Rango release inh	GLA inh pH 4.5	Rango-impB inh	miR-21 FLuc
O=C(Nc1ccccc1C(F)(F)F)c1ccc(CN2CCC(Cc3ccccc3)CC2)cc1	6%	-8	2.5%	8%
O=C(CCNc1ccccc1)c1cccc([N+](=O)[O-])c1	-1%	-10	2.3%	-4%
C/C(=N\N)c1c(-c2ccccc2)c2cc(C)ccc2[nH]c1=O	-5%	0	2.4%	0%
CC(=O)c1c(-c2ccccc2)c2cc([N+](=O)[O-])ccc2[nH]c1=O	-1%	·	1.7%	22%
CC1CCN(c2nc3c(N)ncnc3n2[C@@H]2O[C@H](CO)[C@@H](O)[C@H]2O)CC1	1%	·	1.6%	-4%
COc1ccc(/C=N/Nc2nc(C)cc(=O)[nH]2)cc1OC	11%	·	-2.7%	0%
O=C(CSc1nc2ccccc2[nH]1)Nc1nc(-c2cccc(Br)c2)cs1	-5%	-5	-0.4%	-31%
Cc1ccc2nc(-c3ccccc3)cc(C(=O)N3CC(C)OC(C)C3)c2c1 (configuration not stated)	-5%	·	5.8%	·
CC(C)(C)NC(=S)NNC(=O)c1cccc(Br)c1	?	-9	0.7%	-32%
Cc1ccccc1-n1c(Cc2cccs2)n[nH]c1=S	-10%	-4	8.6%	-3%
O=C(OCc1nc2ccccc2[nH]1)C12CC3CC(CC(C3)C1)C2	12%	1	-1.0%	-6%
N/C(=N\OC(=O)c1ccc(Cl)cc1[N+](=O)[O-])c1cccnc1	-4%	1	0.6%	-52%
COC(=O)C1=C(NC(=O)COc2ccc(Cl)cc2Cl)CCS1	2%	7	-1.6%	-25%
COC(=O)c1ccc(-c2ccc(/C=N/NC(=O)CC3(C)OCCCO3)o2)cc1	6%	-2	0.2%	-30%
Cc1cc(C)n2nc(C(=O)Nc3c(C)nn(Cc4ccc(F)cc4)c3C)cc2n1	9%	-4	2.4%	-10%
CS(=O)(=O)N(CC(=O)N1CCC(C(N)=O)CC1)c1ccc(Oc2ccccc2)cc1	15%	9	3.3%	0%
Cc1sc2ncn(C(C)C(=O)OC3CCCCC3)c(=O)c2c1C (configuration not stated)	-7%	0	-0.3%	9%
CC(Cc1ccccc1)N/C=C1/CC(=O)NC1=O (configuration not stated)	0%	-4	-5.7%	1%
O=C1NC(c2ccccc2Br)=N/C1=C\c1ccco1	?	-4	?	-52%
CCCc1ccc(Oc2cc(N3CCOCC3)nc(-c3ccccc3)n2)cc1	4%	·	-0.7%	·
CCCCOc1ccc(C(=O)Oc2ccc(C)nc2)cc1	4%	-22	-0.5%	-6%
Cc1c(Cl)cccc1NC(=S)NCc1ccccc1Cl	-11%	7	0.9%	-2%
O=[N+]([O-])c1ccc2c(c1)nc1n2CCN(C2CCCCC2)C1	14%	-6	-3.8%	-58%
CCOCCCNS(=O)(=O)c1ccc(Br)cc1	25%	-3	7.3%	-2%
CCc1cccc2c(=O)c(C(=O)N3CCOCC3)c[nH]c12	-3%	3	-0.4%	-9%
CCCn1c(=S)[nH]c2cc(OC)c(OC)cc2c1=O	-6%	9	-2.6%	3%
O=C(CNS(=O)(=O)c1ccccc1)Nc1ccc(F)cc1F	-1%	·	-0.2%	-6%
CN(C(=O)c1cccc(NC(=O)Cc2cccc(NC(=O)C3CCCN(C(=O)C4CC4)C3)c2)c1)C1CC1 (configuration not stated)	13%	·	7.1%	·
O=c1c(N2CCOCC2)coc2ccccc12	-1%	-2	-3.8%	-2%
COc1ccc(N(Cc2ccccc2)C(=O)OC(C)(C)C)c(C(=O)N(C)OC)c1	13%	·	-0.5%	·
CC(C)c1ccc(NC(=O)N2CCOCC2)cc1	19%	·	-0.4%	-44%
CCOC(=O)Cc1nnc(NC(=O)C2CCCCC2)s1	28%	9	0.0%	-5%
Cc1ccc(-c2nnn(CC(=O)N(CC3CCCO3)C(C(=O)NC3CCCC3)c3ccc(F)cc3)n2)o1 (configuration not stated)	-3%	3	8.6%	1%
O=C(NC1CCCCCC1)c1ccc(Br)o1	-13%	·	-0.5%	-27%
O=C(c1cc(COc2ccc(F)cc2F)on1)N1CCOCC1	-8%	·	-0.8%	-61%
CCCC1(CCC)NC(=O)NC1=O	22%	3	-2.9%	-5%
Cc1cc(NC(=O)C2CCCCC2)ccc1NC(=O)c1ccccc1Cl	4%	5	0.0%	1%
CC(=O)NC1CCCc2c1cnn2-c1ccc(C(C)(C)C)cc1 (configuration not stated)	-15%	·	-5.1%	-5%
O=C(CSc1ccccc1)NCC1(N2CCCCC2)CCCCC1	14%	·	5.4%	·
CC(NC(=O)Nc1ccc(F)cc1)c1ccc2c(c1)OCO2 (configuration not stated)	-8%	·	-3.5%	-4%
Cc1cc(NC(=O)C(C)SCC(=O)OC(C)C(=O)Nc2cccc(C#N)c2)no1 (configuration not stated)	0%	·	-1.2%	·
CN(CC(=O)Nc1cccc(S(=O)(=O)NC2=NCCC2)c1)Cc1ccccc1Cl	-5%	·	0.4%	·
COc1ccc(N2C(=O)CCC(C(=O)Nc3ccccn3)C2c2ccc(OC)c(OC)c2)cc1 (configuration not stated)	-9%	-10	2.2%	-1%
COc1cc(C(=O)OCCN2CCOCC2)cc(OC)c1OC	0%	-1	-2.2%	1%

Compound profiles, as listed above. Screens in order: Rango release inh	GLA inh pH 4.5	Rango-impB inh	miR-21 FLuc
O=C(NC1CCCCCC1)c1ccc(Br)o1 as listed: -13%	·	-0.5%	-27%
CN(CC(=O)Nc1cccc(S(=O)(=O)NC2=NCCC2)c1)Cc1ccccc1Cl as listed: -5%	·	0.4%	·
CCCC1(CCC)NC(=O)NC1=O as listed: 22%	3	-2.9%	-5%
CCOC(=O)Cc1nnc(NC(=O)C2CCCCC2)s1 as listed: 28%	9	0.0%	-5%
CC(=O)NC1CCCc2c1cnn2-c1ccc(C(C)(C)C)cc1 (configuration not stated) as listed: -15%	·	-5.1%	-5%

(list continues)
SMILES	Rango release inh	GLA inh pH 4.5	Rango-impB inh	miR-21 FLuc
COc1ccc(-c2nc3c(=O)n(C)c(=O)[nH]c3n2CCc2ccccc2)cc1	-5%	-17	-5.6%	-3%
Cc1ccc(CS(=O)(=O)c2ncc(Cl)c(C(=O)Nc3nnc(C)s3)n2)cc1	12%	·	-0.6%	?
COc1ccc(S(=O)(=O)N2CCCC2=O)cc1N(C)S(C)(=O)=O	6%	·	-2.7%	-6%
Cn1c(CCNC(=O)c2cccs2)nnc1SCC(=O)N1CCN(c2ccccc2)CC1	15%	-2	-0.1%	1%
CS(=O)(=O)N(CC(=O)NCCSCc1cccc(Cl)c1)c1ccc(F)cc1	-3%	·	0.7%	3%
CCCCOC(=O)Cn1c(=O)n(CC(=O)OCCCC)c2cc(C)ccc21	7%	-10	-0.4%	-1%
Cc1cc(-c2ccc(C)c(S(=O)(=O)Nc3cccc(CN4CCCC4)c3)c2)on1	-8%	·	0.3%	-1%
O=C(c1cc(C(=O)N2CCOCC2)c2nc3ccccc3n2c1)c1ccccc1O	-15%	-6	0.5%	-17%
Nc1cccc(S(=O)(=O)Nc2ccc(Br)cc2)c1	4%	1	3.6%	0%
CSc1nc2n(n1)C(c1cc(Br)ccc1F)C(C(=O)N(C)C)=C(C)N2 (configuration not stated)	-11%	7	-0.8%	0%
CCOc1cnc(-c2c(-c3c(Cl)cccc3Cl)noc2C)o1	2%	-8	1.1%	0%
Cc1ccc2nc3c(cc(C(=O)NCCc4ccccc4)c(=N)n3CCN3CCOCC3)c(=O)n2c1	?	·	?	-2%
O=C(NCCc1ccccc1)c1ccnc(/C=N/O)c1	7%	-11	2.0%	-22%
CCCC/C(C)=N\NC(=O)CNS(=O)(=O)c1ccc([N+](=O)[O-])cc1	-9%	4	-0.4%	4%
O=C(C[C@H]1C/C=C\CCC(=O)OC[C@H]2CCCN2C1=O)NCCO	9%	·	2.1%	·
COc1ccc(S(=O)(=O)NC2CC(=O)N(c3ccc(C)c(C)c3)C2)cc1C (configuration not stated)	-6%	·	1.2%	·
O=C(Nc1ccc(Nc2ccccc2)cc1)c1cccc(F)c1	-10%	·	-1.4%	-30%
O=C(CSc1nc2ccccc2n1Cc1ccc(Cl)cc1)N/N=C/c1ccccc1C(=O)O	2%	-1	-2.3%	-14%
CN1CCN(C2OC(=O)c3ccccc32)CC1 (configuration not stated)	-24%	2	?	1%
O=C(CSC1=Nc2ccccc2C2=NC(CC(=O)NC3CCCCC3)C(=O)N12)NCc1ccco1 (configuration not stated)	-7%	-8	-1.4%	3%
CCCS(=O)(=O)c1nc(S(=O)(=O)c2ccc(C)cc2)c(NCc2ccc3c(c2)OCO3)s1	-18%	5	?	-20%
Cc1cc(C)n(Cc2cccc(F)c2)c(=O)c1C#N	-3%	2	0.4%	-2%
C=CCn1c(SCc2nc3ccccc3c(=O)[nH]2)nc2ccccc2c1=O	-10%	4	?	4%
COC(=O)c1ccc(COc2ccccc2/C=C(\C#N)C(=O)Nc2c(C)cccc2C)cc1	-7%	-1	1.5%	11%
Cc1ccc(C)c(NC(=S)NC(NC(=O)Cc2cccc3ccccc23)C(Cl)(Cl)Cl)c1 (configuration not stated)	-4%	0	0.2%	1%
N#CNC(=Nc1cccc(C(F)(F)F)c1)SCc1ccc(C(=O)O)cc1	-19%	0	-0.2%	-1%
Cc1cc(O)c(C(C)C)cc1NC(=O)c1ccc(Cl)cc1	5%	11	-0.9%	-1%
CC1=NN(C(=O)c2ccc(Cn3cc(Br)c([N+](=O)[O-])n3)o2)C(O)(C(F)(F)F)C1 (configuration not stated)	-12%	0	-2.9%	-1%

Screening data: PubChem, National Center for Advancing Translational Sciences (NCATS)
